Bioassay records deposited in PubChem BioAssay by Broad Institute.
Vaccinia stage: blocks a specific stage of Vaccinia orthopoxvirus infection, primary screen, cell-based, single point; Vaccinia-infected cells, mCherry/Venus stage reporter fluorescence; stronger effect = lower value; some inactives read as strong as hits; activity change (mCherry), % (concentration not given with the values); actives 0.01% (n = 89,000); AID 1053133, 2014;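 active = mCherry past -33% and 40 or more points under the early reporter, replicates agreeing; inconclusive = past -33% without that gap or agreement; tested in A549 cells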;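 also: scaled between vehicle wells and reference inhibitor wells; 23 nL library stock went into each well; one replicate is shown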
Vaccinia stage Venus: also measured in Vaccinia stage; calls as there; activity change (Venus), %; measured here: Venus reporter, other viral stage;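 negative = less Venus signal; first of two replicates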
Starred values were filed as active, the others as inactive; ? = inconclusive; . = no result given; & = joins results of further samples. This is a subset (hit frequency here may not be typical).

SMILES | Vaccinia stage | Vaccinia stage Venus
Cc1ccc(-c2ccc3c(c2)O[C@@H](CN(C)C(=O)CN(C)C)[C@H](C)CN([C@@H](C)CO)S3(=O)=O)cc1 | -8 | -1
O=C(C[C@@H]1CC[C@@H]2[C@H](COC[C@@H](O)CN2Cc2ccncc2)O1)NCC1CC1 | 6 | 11
CC(C)NC(=O)N(C)C[C@@H]1Oc2ccc(N(C)C)cc2CC(=O)N([C@H](C)CO)C[C@H]1C | 14 | 10
O=C(C[C@H]1CC[C@H]2[C@@H](COC[C@@H](O)CN2C(=O)c2ccccc2F)O1)NCc1ccc(Cl)cc1 | 0 | 2
O=C(N[C@H]1CC[C@H](CC(=O)N2CCCCC2)O[C@@H]1CO)c1cccc(F)c1 | -5 | -10
CCCC(=O)N1CC2(C1)CN(Cc1cccnc1)[C@H](CO)c1[nH]c3cc(OC)ccc3c12 | 16 | 20
C[C@@H]1CN([C@@H](C)CO)C(=O)c2cc(NC(=O)Nc3ccc(F)cc3)ccc2O[C@@H](C)CCCCO[C@H]1CN(C)S(=O)(=O)c1ccccc1 | 21 | 17
COc1ccc(NC(=O)N(C)C[C@@H]2OCCCC[C@@H](C)Oc3ccc(NS(=O)(=O)c4ccc(F)cc4)cc3C(=O)N([C@H](C)CO)C[C@@H]2C)cc1 | 27 | 7
COc1ccc2c3c(n(C)c2c1)[C@@H](CO)N(Cc1nccs1)CC31CCN(C)CC1 | -3 | -6
C[C@@H]1CN([C@H](C)CO)C(=O)c2cc(C#Cc3ccccc3F)cnc2O[C@H]1CN(C)C | 17 | 20
C[C@H](CO)N1C[C@H](C)[C@H](CN(C)C(=O)Nc2ccc(F)cc2)OCc2ccccc2-c2c(n(C)c3ccccc23)C1=O | -27 | -17
C[C@H](CO)N1C[C@H](C)[C@H](CN(C)C(=O)c2ccccn2)Oc2cc(C#Cc3ccc(F)cc3)ccc2S1(=O)=O | ? | -15
CO[C@@H]1CN(C)C(=O)c2ccc(NC(=O)C3CC3)cc2OC[C@H](C)N(C(=O)CN(C)C)C[C@H]1C | 10 | 9
COc1ccc(NC(=O)Nc2ccc3c(c2)CC(=O)N([C@@H](C)CO)C[C@@H](C)[C@@H](CN(C)C(=O)Nc2ccc(F)cc2)O3)cc1 | -4 | -4
O=C(C[C@H]1CC[C@@H]2[C@H](COC[C@H](O)CN2C(=O)c2ccccc2)O1)N1CCc2ccccc2C1 | -2 | 2
CCC(=O)N1C[C@@H](C)[C@@H](OC)CN(C)C(=O)c2ccc(NC(=O)c3ccc(F)cc3)cc2OC[C@H]1C | 1 | -1
Cc1noc(C)c1S(=O)(=O)Nc1ccc2c(c1)C(=O)N([C@H](C)CO)C[C@@H](C)[C@H](CN(C)C(=O)NC(C)C)O2 | 13 | 6
COCC(=O)N1CC2(CCN(Cc3ccccc3)CC2)c2c([nH]c3cc(OC)ccc23)[C@H]1CO | -15 | -23
COc1cccc(C#Cc2ccc([C@@H]3[C@H](CO)N4C(=O)CN(C(C)=O)C[C@@H]34)cc2)c1 | -31 | -27
C[C@H]1CN([C@@H](C)CO)C(=O)Cc2cc(NC(=O)Nc3ccc(F)cc3)ccc2O[C@@H]1CN(C)S(=O)(=O)c1ccc(F)cc1 | 17 | 12
C[C@@H]1CCCCO[C@H](CN(C)C(=O)c2ccncc2)[C@@H](C)CN([C@H](C)CO)C(=O)c2cc(NC(=O)CCCN(C)C)ccc2O1 | 25 | 13
O=C(NC[C@@H]1N[C@@H](CO)[C@@H]1c1ccc(-c2ccccc2F)cc1)c1ccccn1 | 1 | 6
O=C(Nc1cccc(Cl)c1)N1C[C@@H]2[C@H](c3ccccc31)[C@@H](CO)N2C(=O)C1CCCC1 | -2 | 13
COC(=O)CCCCCCC(=O)Nc1ccc(C=O)cc1 | 7 | 0
C[C@H](NC(=O)C[C@H]1C=C[C@@H](NC(=O)CN2CCOCC2)[C@@H](CO)O1)c1ccccc1 | -9 | 0
COc1cccc(NC(=O)N(C)C[C@H]2Oc3ncc(C#Cc4ccc(F)cc4)cc3C(=O)N([C@H](C)CO)C[C@H]2C)c1 | -27 | -23
CCCNC(=O)N1CC2(CCN(CC3CCCC3)CC2)c2c([nH]c3cc(OC)ccc23)[C@@H]1CO | -17 | -13
O=C(C[C@H]1C[C@H]2c3cc(NC(=O)C4CCC4)ccc3O[C@H]2[C@H](CO)O1)NCc1ccccc1 | 8 | 1
C[C@H](NC(=O)[C@@H]1[C@@H](CO)[C@@H]2Cn3c(cccc3=O)[C@@H]2N1C(=O)C1CC1)c1ccccc1 | 1 | 0
C[C@H](CO)N1C[C@H](C)[C@H](CN(C)S(C)(=O)=O)OCCCC[C@H](C)Oc2ccc(NC(=O)Nc3ccc(C(F)(F)F)cc3)cc2C1=O | 34 | 17
C[C@H]1CN([C@@H](C)CO)S(=O)(=O)c2ccc(-c3cccc(C(=O)N(C)C)c3)cc2O[C@@H]1CN(C)Cc1ccc2c(c1)OCO2 | ? | .
C[C@@H]1CN([C@H](C)CO)C(=O)c2cccc(NS(C)(=O)=O)c2O[C@@H]1CN(C)S(=O)(=O)c1cn(C)cn1 | 3 | 4
COc1ccc(S(=O)(=O)N2C[C@@H](O)COC[C@H]3O[C@@H](CC(=O)N[C@H]4CCN(Cc5ccccc5)C4)CC[C@@H]32)cc1 | -9 | -4
CO[C@@H]1CN(C)C(=O)c2cc(NS(=O)(=O)c3cn(C)cn3)ccc2OC[C@@H](C)N(CCC(F)(F)F)C[C@@H]1C | 6 | 4
CC(C)NC(=O)Nc1ccc2c(c1)CC(=O)N([C@H](C)CO)C[C@@H](C)[C@H](CN(C)Cc1ccc(C(F)(F)F)cc1)O2 | -16 | -23
CCCNC(=O)N1C[C@H](O)COC[C@H]2O[C@@H](CC(=O)N3CCC(Cc4ccccc4)CC3)CC[C@@H]21 | -11 | -7
CC(C)NC(=O)N(C)C[C@@H]1Oc2ncc(C#CC3(O)CCCC3)cc2C(=O)N([C@H](C)CO)C[C@H]1C | 20 | 7
C[C@@H]1CN([C@@H](C)CO)C(=O)c2cc(NC(=O)CCC(F)(F)F)ccc2O[C@@H](C)CCCCO[C@@H]1CN(C)C(=O)Nc1ccccc1 | 19 | 7
CO[C@H](CN(C)Cc1cc(F)ccc1F)[C@@H](C)CN([C@@H](C)CO)S(=O)(=O)c1ccc(F)cc1 | -7 | -1
CC(C)COC(=O)N(C)C[C@@H]1OCc2cnnn2CCCC(=O)N([C@@H](C)CO)C[C@H]1C | 12&5 | -2&1
C[C@H](NC(=O)C[C@H]1CC[C@H](NC(=O)CN2CCOCC2)[C@@H](CO)O1)c1ccccc1 | -5 | -1
CC=Cc1ccc2n(c1=O)C[C@H]1[C@H](CO)[C@@H](C(=O)NC3Cc4ccccc4C3)[C@@H]2N1C(C)=O (mixture of isomers) | 14 | 3
C[C@H]1CN([C@@H](C)CO)C(=O)c2c(c3ccccc3n2C)-c2ccccc2CO[C@H]1CN(C)Cc1cccnc1 | -26 | -22
COc1ccc(S(=O)(=O)Nc2ccc3c(c2)CC(=O)N([C@@H](C)CO)C[C@@H](C)[C@@H](CN(C)Cc2ccc(C(=O)O)cc2)O3)cc1 | 20 | 18
O=C(Cc1ccccc1)N1C[C@@H]2[C@H](c3ccccc31)[C@@H](CO)N2C(=O)C1CCOCC1 | 11 | 4
Cc1ccc(-c2cnc3c(c2)C(=O)N([C@@H](C)CO)C[C@@H](C)[C@H](CN(C)C(=O)c2cccnc2)O3)cc1 | 0 | -7
COc1ccc2c3c(n(C)c2c1)[C@H](CO)NCC31CCN(C(=O)c2ccc(F)cc2)CC1 | -14 | -20
C[C@@H]1CN([C@H](C)CO)C(=O)c2cc(Br)cnc2O[C@H]1CN(C)C(=O)c1ccccn1 | 10 | 9
C/C=C/c1ccc([C@H]2[C@@H](CO)N(C(=O)COC)[C@@H]2CNC(=O)C2CCC2)cc1 | -16 | -17
COc1cc2c(cc1OC)CN(C(=O)[C@H]1[C@@H]3C(=O)O[C@@H](c4ccccc4)[C@@H](c4ccccc4)N3[C@@H](c3ccccc3OCCO)[C@]13C(=O)Nc1ccc(C#CC4=CCCCC4)cc13)CC2 | -7 | -1
Cc1noc(C)c1NC(=O)Nc1ccc2c(c1)CC(=O)N([C@H](C)CO)C[C@@H](C)[C@@H](CN(C)CC1CCCCC1)O2 | -17 | -5
C[C@H]1CN([C@@H](C)CO)C(=O)Cc2cc(NS(=O)(=O)c3ccc(F)cc3)ccc2O[C@H]1CN(C)Cc1ccc(C(=O)Nc2ccccc2N)cc1 | 4 | 2
CC(=O)N(C)C[C@H]1Oc2ncc(-c3cccnc3)cc2C(=O)N([C@H](C)CO)C[C@H]1C | 28 | 9
C[C@H]1CN([C@@H](C)CO)C(=O)c2cc(NS(=O)(=O)c3cn(C)cn3)ccc2O[C@@H]1CN(C)C(=O)Nc1ccc(C(F)(F)F)cc1 | 5 | -5
CCCNC(=O)[C@@]1(Sc2ccc(C)cc2)CC(=O)N(C2CCCCC2)[C@@H]1c1ccc(CO)cc1I | ? | .
O=C(C[C@H]1CC[C@H]2[C@@H](COC[C@H](O)CN2C(=O)Nc2ccc(F)cc2)O1)NCCCN1CCOCC1 | 11 | 4
COc1ccc(CN(C)C[C@H]2Oc3ccc(NC(=O)c4ccncc4)cc3CC(=O)N([C@@H](C)CO)C[C@H]2C)cc1 | 8 | -1
COCC#Cc1ccc(CC[C@H]2O[C@H]3CC[C@@H](CO)O[C@H]3C[C@H]2n2cc(C3CC3)nn2)cc1 | -11 | -9
C[C@H]1CN([C@@H](C)CO)C(=O)c2cc(C#Cc3cccnc3)cnc2O[C@H]1CN(C)S(=O)(=O)c1ccccc1F | -8 | -5
C[C@@H]1CN([C@H](C)CO)S(=O)(=O)c2ccc(C#Cc3ccccc3)cc2O[C@H]1CN(C)C(=O)CN(C)C | ? | .

(listing goes on)
SMILES | Vaccinia stage | Vaccinia stage Venus
CCc1csc(N2[C@H](C#N)[C@@H](c3ccc(-c4ccc(F)cc4)cc3)[C@H]2CO)n1 | -16 | -15
COc1cccc(S(=O)(=O)N[C@@H]2CC[C@@H](CC(=O)NC3Cc4ccccc4C3)O[C@@H]2CO)c1 | -1 | -7
CC(C)NC(=O)Nc1ccc2c(c1)C(=O)N([C@H](C)CO)C[C@H](C)[C@@H](CN(C)Cc1ccc(C(F)(F)F)cc1)OCCCC[C@H](C)O2 | ? | .
C[C@H]1CN([C@@H](C)CO)S(=O)(=O)c2ccc(C#CC3(O)CCCC3)cc2O[C@H]1CN(C)C(=O)Nc1ccc(F)cc1 | -29 | -15
CO[C@@H]1CN(C)C(=O)c2cc(NC(C)=O)ccc2OC[C@H](C)N(C(=O)c2ccccc2F)C[C@H]1C | 6 | 2
CNC[C@@H]1Oc2ccc(NC(=O)Nc3ccccc3)cc2CC(=O)N([C@H](C)CO)C[C@@H]1C | 14 | 11
C[C@H](CO)N1C[C@H](C)[C@@H](CN(C)C(=O)NC2CCCCC2)OCCCC[C@H](C)Oc2ccc(NC(=O)Nc3ccc4c(c3)OCO4)cc2C1=O | -2 | -12
CNC[C@@H]1OCCCC[C@@H](C)Oc2ccc(NC(=O)Nc3ccc(C(F)(F)F)cc3)cc2C(=O)N([C@@H](C)CO)C[C@H]1C | -24 | -10
C[C@H](CO)N1C[C@H](C)[C@@H](CN(C)Cc2ccccc2)Oc2c(NS(=O)(=O)c3ccc(F)cc3)cccc2C1=O | 4 | 2
COCC(=O)Nc1ccc2c(c1)[C@H]1C[C@@H](CC(=O)NCc3ccc(-c4ccccc4)cc3)O[C@H](CO)[C@H]1O2 | -1 | -4
CN(C)CC(=O)N1[C@H](CO)[C@H](c2ccccc2-c2ccc(C(=O)N(C)C)cc2)[C@@H]1C#N | 0 | 3
C/C=C/c1cnc2c(c1)C(=O)N([C@H](C)CO)C[C@@H](C)[C@@H](CN(C)Cc1ccncc1)O2 | 20 | 10

Reformatted with values under each structure: part of the list above.
Values in the order: Vaccinia stage | Vaccinia stage Venus
C[C@H]1CN([C@@H](C)CO)C(=O)c2cc(C#Cc3cccnc3)cnc2O[C@H]1CN(C)S(=O)(=O)c1ccccc1F
→ -8 | -5
C[C@@H]1CN([C@H](C)CO)S(=O)(=O)c2ccc(C#Cc3ccccc3)cc2O[C@H]1CN(C)C(=O)CN(C)C
→ ? | .
CCc1csc(N2[C@H](C#N)[C@@H](c3ccc(-c4ccc(F)cc4)cc3)[C@H]2CO)n1
→ -16 | -15
COc1cccc(S(=O)(=O)N[C@@H]2CC[C@@H](CC(=O)NC3Cc4ccccc4C3)O[C@@H]2CO)c1
→ -1 | -7
CC(C)NC(=O)Nc1ccc2c(c1)C(=O)N([C@H](C)CO)C[C@H](C)[C@@H](CN(C)Cc1ccc(C(F)(F)F)cc1)OCCCC[C@H](C)O2
→ ? | .
C[C@H]1CN([C@@H](C)CO)S(=O)(=O)c2ccc(C#CC3(O)CCCC3)cc2O[C@H]1CN(C)C(=O)Nc1ccc(F)cc1
→ -29 | -15
CO[C@@H]1CN(C)C(=O)c2cc(NC(C)=O)ccc2OC[C@H](C)N(C(=O)c2ccccc2F)C[C@H]1C
→ 6 | 2
CNC[C@@H]1Oc2ccc(NC(=O)Nc3ccccc3)cc2CC(=O)N([C@H](C)CO)C[C@@H]1C
→ 14 | 11
C[C@H](CO)N1C[C@H](C)[C@@H](CN(C)C(=O)NC2CCCCC2)OCCCC[C@H](C)Oc2ccc(NC(=O)Nc3ccc4c(c3)OCO4)cc2C1=O
→ -2 | -12
CNC[C@@H]1OCCCC[C@@H](C)Oc2ccc(NC(=O)Nc3ccc(C(F)(F)F)cc3)cc2C(=O)N([C@@H](C)CO)C[C@H]1C
→ -24 | -10
C[C@H](CO)N1C[C@H](C)[C@@H](CN(C)Cc2ccccc2)Oc2c(NS(=O)(=O)c3ccc(F)cc3)cccc2C1=O
→ 4 | 2
